# T cruzi repl = blocks replication of Trypanosoma cruzi; AID 1885; T. cruzi beta-gal in NIH3T3, luminescence, 90 h; inhibition, % (test concentration not listed); 1.4% of 300,000 active;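 active = mean inhibition across valid replicates above about 55%, limit read from the data; inconclusive = mean below that limit but half or more replicates reach it; inactive = mean below it, under half of replicates reach it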;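 also: signal also drops with host cell toxicity which is not excluded here; 0% = plate median of DMSO wells and 100% = zero luminescence signal; higher percent means less beta-gal luminescence so fewer parasites; stock transfer was 50 nL into about 50 µL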
# rRNA inh HTS = inhibits bacterial ribosomal RNA function over humanized ribosomes; E. coli WT GFP vs humanized-ribosome RFP mutants, fluorescence, 24 h; hits give low values; DMSO median 0, no signal -100; GFP signal change (wild-type ribosome), % (no concentration beside the values); 1.6% of 350,000 active;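 active = significant combined selectivity score with lowered wild-type GFP, culture density cut under 30%, mutant RFP and density less affected; inactive = any of these conditions unmet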; also: one replicate is shown; some compounds called inactive have numbers as strong as hits
# Beta2AR agonist = activates human beta-2 adrenergic receptor causing internalization; P07550; Am2.2-beta2AR cells, FAP receptor internalization, flow cytometry; reference of the scale not given here; response, % (no concentration beside the values); 0.43% of 340,000 active; AID 504454;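 active = response above a set limit, near 3 SD of response in nonfluorescent compounds, cut at about 42% in these data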;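 also: stock transfer was 100 nL into about 11 µL; a reference agonist was the positive control; negative values mostly stem from fluorescent compounds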
# A1 inh = inhibitors of the anti-apoptotic protein A1, read as caspase activation. MEF A1-2A-BIM cells, Caspase-Glo 3/7 luminescence, 3 h; percent of clofoctol response, vehicle zero. caspase activation, % (test concentration not listed). 0.066% of 330,000 active. AID 2462;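 active = over half of replicate activation scores above 10%, or exactly half above 10 with the replicate mean above 10; inconclusive = replicate mean below 10 yet half the replicates above 10; inactive = over half of replicates below 10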;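 also: wells of about 30 µL received 50 nL stock; many hits fall short of the cut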
# Calb FLC = C. albicans growth modulation with fluconazole; growth inhibition, % (concentration not given with the values); C. albicans CaCi-2 (fluconazole-resistant clinical isolate) + fluconazole, Alamar Blue growth, 48 h; 0.57% of 300,000 active; AID 1979;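 active = most replicates above 75%; inconclusive = exactly half above 75%; inactive = most below 75%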;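 also: all wells also contain fluconazole at 8 µg/ml as a sub-toxic cotreatment; 0% = median of DMSO wells and 100% = median of geldanamycin control wells; wells of about 8 µL received 7.5 nL stock; the first replicate is given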
# Beta cell apopt = blocks beta cell apoptosis; protection from apoptosis, % (no concentration beside the values); AID 435005; INS-1E cytokine-induced death, ATP luminescence, 48 h; percent of positive-control rescue, neutral wells zero; 0.8% of 300,000 active;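 active = all replicates at 75% or more, or half of them and the mean; inconclusive = half reach 75% but not the mean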;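 also: 0% = cytokine-treated negative control wells and 100% = positive control rescue; higher means more ATP so stronger rescue from cytokine killing; wells of about 40 µL received 100 nL stock; the first replicate is given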
# LANA-H2A inh = blocks KSHV LANA binding to histone H2A/H2B; cell-free LANA-H2A/H2B peptide, fluorescence polarization; inhibition, % (test concentration not listed); 0.6% of 320,000 active; AID 2629; in the data active = inhibition mostly above about 10%, no sharp cut-off; inactive = mostly below about 6.7%;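 also: stock transfer was 7.5 nL into about 10 µL; 0% = median of vehicle wells and 100% = median of positive control wells; one replicate is shown; the record names a cut of 25% in any replicate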
# ALR H2O2 inh = blocks human ALR sulfhydryl oxidase activity. P55789. purified ALR, DTT oxidation, H2O2 HRP-luminol luminescence. inhibition, % (concentration not given with the values). 3.8% of 290,000 active. AID 485317;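 active = mean and each replicate at 75% or more; inconclusive = only one of the two met; inactive = neither met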;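 also: stock transfer was 7.5 nL into about 7.5 µL; 0% = neutral wells and 100% = wells with inactivated enzyme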
# rRNA inh HTS OD600 = second read-out of rRNA inh HTS, no call of its own (marks repeat the call); OD600 change, %; measured here: OD600 growth;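 optical density of the mix in the first replicate; 0 = DMSO median and -100 = no signal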
# rRNA inh HTS RFP = further read-out of rRNA inh HTS, marked with its call; RFP signal change, %; measured here: RFP humanized mutant strains;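 first replicate; 0 = DMSO median and -100 = no signal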
# * = called active by the depositor; ? = inconclusive; . = no result given. An excerpt, so the mix of outcomes need not match the whole.
1	O=C(c1cc(C(=O)N2CCOCC2)c2nc3ccccc3n2c1)c1cc(Cl)cc(Cl)c1O
2	CCOC(=O)N1CCC(N2CCCC(C(=O)c3cccc(OC)c3)C2)CC1 (configuration not stated)
3	Cc1nnc2n(C)c(=O)c3c4c(sc3n12)COC(C)(C)C4
4	CC(=O)N(C(C)=O)c1nc(-c2ccccc2)cn1/N=C/c1ccccc1
5	COc1ccc(NC(=O)Cn2nnc(C(=O)NCc3ccc4c(c3)OCO4)c2N)cc1
6	COc1ccc(C(C(=O)NC(C)(C)C)N(C(=O)CNC(=O)c2cccs2)c2ccc(C(C)C)cc2)cc1OC (configuration not stated)
Screen / compound no.	1	2	3	4	5	6
T cruzi repl	6	34	-1	-12	6	20
rRNA inh HTS	-18*	4	14	-6	10	1
rRNA inh HTS OD600	-13*	-2	0	10	17	0
rRNA inh HTS RFP	7.4*	-4.1	-2.8	-2.9	-0.8	-0.5
Beta2AR agonist	4	-10	-1	21	2	-2
A1 inh	0.2	-0.3	1.8	0.7	-1.2	0.5
Calb FLC	0	-7	-12	4	-9	51
Beta cell apopt	8	-2	-4	-1	-6	-3
LANA-H2A inh	-5.0	-1.7	0.2	-1.6	4.7	0.5
ALR H2O2 inh	3	-1	-19	30	5	-27

7	Cc1cc(C)cc(NC(=O)COC(=O)c2cc(=O)[nH]c(=O)[nH]2)c1
8	O=c1cc(CSc2nnc(COc3ccccc3)o2)c2ccccc2[nH]1
9	Cc1ccc(NC(=O)C2CCN(S(=O)(=O)c3ccc4c(c3)CCCC(=O)N4)CC2)cc1N(C)C
10	C[C@@]12C(=O)Nc3ccc(Br)cc3C(=O)N1[C@H]1c3ccccc3OC[C@@H]1[C@@H]2c1ccccc1
11	Cc1sc(N(C(=O)CCc2ccccc2)c2ccc(C(=O)O)cc2)nc1-c1ccccc1
12	O=C(N/N=C/c1sc(=O)[nH]c1-[n+]1ccc2ccccc2c1)c1ccccc1[O-]
Screen / compound no.	7	8	9	10	11	12
T cruzi repl	-24	-33	15	.	8	2
rRNA inh HTS	12	.	-2	.	5	10
rRNA inh HTS OD600	3	.	-1	.	13	-2
rRNA inh HTS RFP	2.2	.	-1.3	.	-0.9	-2.0
Beta2AR agonist	1	-11	7	1	11	-1
A1 inh	0.4	1.7	0.5	0.3	-0.5	0.1
Calb FLC	-1	?	-2	.	13	0
Beta cell apopt	-4	-7	0	5	6	-2
LANA-H2A inh	-2.3	-2.5	-0.9	-3.6	-4.6	-0.1
ALR H2O2 inh	-2	0	13	2	17	.

13	Nc1nc(Br)c2ccccc2c1-c1ccccc1
14	N#C/C(=C\c1ccccc1OCC(=O)O)c1nc2ccccc2[nH]1
15	COCCCNC(=O)CSc1nc2ccccc2c(=O)n1CCc1ccc(S(N)(=O)=O)cc1
16	O=C(c1ccc2c(c1)CCN2S(=O)(=O)c1ccccc1)N1CCN(c2ccc(F)cc2)CC1
17	Cc1cc(NC(=O)c2cc(-c3cccc(OCC(C)C)c3)nc3ccccc23)no1
18	COc1ccc(S(=O)(=O)N2CCOC2CNC(=O)C(=O)NCCCc2ccccc2)cc1 (configuration not stated)
Screen / compound no.	13	14	15	16	17	18
T cruzi repl	1	-3	-6	10	13	12
rRNA inh HTS	-6	13	-2	-14	1	4
rRNA inh HTS OD600	1	21	3	-13	6	2
rRNA inh HTS RFP	-0.1	2.0	1.2	-3.4	-2.2	1.5
Beta2AR agonist	-4	6	11	17	6	0
A1 inh	0.1	1.2	0.7	0.0	-0.9	-0.6
Calb FLC	3	-7	17	28	-9	14
Beta cell apopt	-2	-5	-3	-6	4	-3
LANA-H2A inh	-8.8	-5.3	3.1	-5.0	0.1	-3.1
ALR H2O2 inh	18	98*	2	-18	-8	0

# Six entries drawn at random from the list so far:
17	Cc1cc(NC(=O)c2cc(-c3cccc(OCC(C)C)c3)nc3ccccc23)no1
14	N#C/C(=C\c1ccccc1OCC(=O)O)c1nc2ccccc2[nH]1
13	Nc1nc(Br)c2ccccc2c1-c1ccccc1
15	COCCCNC(=O)CSc1nc2ccccc2c(=O)n1CCc1ccc(S(N)(=O)=O)cc1
16	O=C(c1ccc2c(c1)CCN2S(=O)(=O)c1ccccc1)N1CCN(c2ccc(F)cc2)CC1
18	COc1ccc(S(=O)(=O)N2CCOC2CNC(=O)C(=O)NCCCc2ccccc2)cc1 (configuration not stated)
Screen / compound no.	17	14	13	15	16	18
T cruzi repl	13	-3	1	-6	10	12
rRNA inh HTS	1	13	-6	-2	-14	4
rRNA inh HTS OD600	6	21	1	3	-13	2
rRNA inh HTS RFP	-2.2	2.0	-0.1	1.2	-3.4	1.5
Beta2AR agonist	6	6	-4	11	17	0
A1 inh	-0.9	1.2	0.1	0.7	0.0	-0.6
Calb FLC	-9	-7	3	17	28	14
Beta cell apopt	4	-5	-2	-3	-6	-3
LANA-H2A inh	0.1	-5.3	-8.8	3.1	-5.0	-3.1
ALR H2O2 inh	-8	98*	18	2	-18	0

# (further entries)
19	c1coc(-c2ccnc3ncnn23)c1
20	O=C(O)c1ccc(Nc2cccc(F)c2)c([N+](=O)[O-])c1
21	CC(=O)c1sc2nsc(SCCN3CCCC3)c2c1N
22	COC(=O)c1sccc1NC(=O)c1c(Cl)cnn1C
23	O=C(OCc1ccc(O)cc1)c1c(-c2ccsc2)oc2ccc(N3CCOCC3)cc12
24	O=C(O)c1ccc(NC(=O)c2ccc(COc3ccccc3)o2)cc1
Screen / compound no.	19	20	21	22	23	24
T cruzi repl	-17	-3	12	-4	28	-9
rRNA inh HTS	.	4	2	3	-12	-18
rRNA inh HTS OD600	.	5	-5	4	-18	-16
rRNA inh HTS RFP	.	0.4	2.9	-1.4	15	-2.4
Beta2AR agonist	0	-2	7	4	3	10
A1 inh	0.0	-0.2	-0.3	-0.5	-0.8	0.4
Calb FLC	-7	10	-4	-18	0	0
Beta cell apopt	-2	-7	-10	-8	14	1
LANA-H2A inh	3.8	1.0	9.3	-0.3	-6.3	4.5
ALR H2O2 inh	0	3	29	-5	-2	-31

# Bioassay records as filed in PubChem.
